# Bioassay records as filed in PubChem.
# ALR H2O2 inh = human ALR oxidase inhibition via reduced H2O2. P55789. purified ALR, DTT oxidation, H2O2 HRP-luminol luminescence. inhibition, % (concentration not given with the values). hit rate 3.8% among 290,000. AID 485317;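 active = mean and each replicate at 75% or more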;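 also: stock transfer was 7.5 nL into about 7.5 µL; 0% = neutral wells and 100% = wells with inactivated enzyme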
# Target sequence (P55789 whole entry, looked up): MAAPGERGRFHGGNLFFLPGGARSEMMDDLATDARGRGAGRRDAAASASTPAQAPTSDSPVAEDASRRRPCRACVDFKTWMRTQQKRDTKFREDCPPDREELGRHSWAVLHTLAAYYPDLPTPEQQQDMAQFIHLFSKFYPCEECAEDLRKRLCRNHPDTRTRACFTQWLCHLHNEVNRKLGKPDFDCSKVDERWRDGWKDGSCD
# FGF22 binding = FGF22 (human) thermal shift binding; AID 651658; hit rate 1.5% among 340,000; calls only at 9.99 µM; recombinant FGF22 thermal shift, SYPRO orange fluorescence; percent of sucrose octasulfate shift, DMSO zero; Q9HCT0;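 active = melting point raised past a set limit in the mean and every replicate; three in four hits are not shown here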
# Ecoli rRNA inh = inhibitors of bacterial rRNA selective over humanized ribosomes; hit rate 1.6% among 350,000; E. coli WT GFP vs humanized-ribosome RFP mutants, fluorescence, 24 h; stronger effect = lower value; DMSO median 0, no signal -100; GFP signal change (wild-type ribosome), % (test concentration not listed);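 active = significant combined selectivity score with lowered wild-type GFP, culture density cut under 30%, mutant RFP and density less affected; inactive = any of these conditions unmet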; also: one replicate is shown; some compounds called inactive have numbers as strong as hits
# Ecoli growth = E. coli growth inhibition | Escherichia coli growth, OD600, 23 h; stronger effect = lower value | OD600 absorbance (no concentration beside the values) | hit rate 0.21% among 330,000 | AID 1053175;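 active = OD600 absorbance below the run mean of sample wells minus 3.6 SD, in any replicate, cut at about 0.56 in these data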;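 also: stock transfer was 300 nL into about 60 µL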
# UCH37 DUB inh = human UCH37 deubiquitinating enzyme inhibition | Q9Y5K5 | purified proteasome/UCH37, Ub-AMC cleavage fluorescence | inhibition, % (test concentration not listed) | hit rate 0.33% among 330,000 | AID 588478;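 active = mean of two replicates above 20%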;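 also: 0% = compound-free wells with enzyme and 100% = wells lacking proteasome; stock transfer was 100 nL into about 20 µL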
# Target sequence (Q9Y5K5 whole entry, looked up): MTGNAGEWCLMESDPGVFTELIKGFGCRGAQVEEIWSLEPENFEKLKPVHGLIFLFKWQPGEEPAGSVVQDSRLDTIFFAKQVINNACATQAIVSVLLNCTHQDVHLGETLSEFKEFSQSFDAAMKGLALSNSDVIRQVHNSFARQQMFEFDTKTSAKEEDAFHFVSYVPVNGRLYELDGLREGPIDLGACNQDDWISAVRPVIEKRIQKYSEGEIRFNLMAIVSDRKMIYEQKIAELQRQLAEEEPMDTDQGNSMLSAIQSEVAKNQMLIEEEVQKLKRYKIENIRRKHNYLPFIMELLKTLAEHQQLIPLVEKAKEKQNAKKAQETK
#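 Material: human UCH37 enzyme supplied as purified proteasome complex / Amount: 0.15 nM proteasome as dispensed / Buffer or medium: pH 7.4 Tris-HCl (50 mM) with ovalbumin, ATP-MgCl2, DTT / Times: preincubation 30 min, reaction 25 min, room temperature / Technique: AMC fluorescence from Ub-AMC cleavage, excitation 355 nm, emission 460 nm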
# HNF4A DNA FP = change in binding of human HNF4 alpha to DNA; HNF4a-FITC DNA binding, fluorescence polarization, 1 h; activity change, % at 10 µM; hit rate 0.3% among 360,000; P41235; in the data active = activity change above about 30%, passing the limit was not always enough;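 also: controls were the assay level and a saturating level of protein; the project sought stronger binding though the title names inhibitors; some compounds called inactive have numbers as strong as hits; positive values seem to mean higher polarization but the record does not say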
# Target sequence (P41235 whole entry, looked up): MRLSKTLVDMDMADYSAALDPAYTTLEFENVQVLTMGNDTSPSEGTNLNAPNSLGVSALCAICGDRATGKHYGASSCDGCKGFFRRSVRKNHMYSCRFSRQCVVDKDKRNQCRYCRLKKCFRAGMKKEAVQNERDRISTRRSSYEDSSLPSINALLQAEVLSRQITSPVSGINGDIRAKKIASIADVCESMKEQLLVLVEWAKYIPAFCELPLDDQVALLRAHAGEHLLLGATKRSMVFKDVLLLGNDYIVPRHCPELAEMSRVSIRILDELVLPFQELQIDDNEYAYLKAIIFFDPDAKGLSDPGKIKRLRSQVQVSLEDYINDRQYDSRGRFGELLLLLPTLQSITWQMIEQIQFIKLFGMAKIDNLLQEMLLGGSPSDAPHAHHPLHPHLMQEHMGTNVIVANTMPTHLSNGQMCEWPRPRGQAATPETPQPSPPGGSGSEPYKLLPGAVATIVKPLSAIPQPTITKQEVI
# B2AR ag = activates human beta-2 adrenergic receptor causing internalization. response, % (no concentration beside the values). hit rate 0.43% among 340,000. Am2.2-beta2AR cells, FAP receptor internalization, flow cytometry; reference of the scale not given here. P07550;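 active = response above a set limit, near 3 SD of response in nonfluorescent compounds, cut at about 42% in these data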;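 also: stock transfer was 100 nL into about 11 µL; a reference agonist was the positive control; negative values mostly stem from fluorescent compounds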
# Ecoli rRNA inh OD600 = recorded beside Ecoli rRNA inh, whose call it bears; OD600 change, %; measured here: OD600 growth;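 optical density of the mix in the first replicate; 0 = DMSO median and -100 = no signal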
# Ecoli rRNA inh RFP = further read-out of Ecoli rRNA inh, marked with its call; RFP signal change, %; measured here: RFP humanized mutant strains;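 first replicate; 0 = DMSO median and -100 = no signal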
# An asterisk follows results filed as active; i = inactive; . = no result given; & = joins results of further samples.
smiles | ALR H2O2 inh | FGF22 binding | Ecoli rRNA inh | Ecoli rRNA inh OD600 | Ecoli rRNA inh RFP | Ecoli growth | UCH37 DUB inh | HNF4A DNA FP | B2AR ag
CCOC(=O)N(C)c1c(CC)nc2c(OCc3cccc(Cl)c3)cccn12 | . | i | 3 | -26 | -2.0 | . | . | 2.4 | .
CC(NC(N)=O)C(=O)Nc1ccc(Cl)c(S(=O)(=O)Nc2ccc(Br)cc2)c1 (stereo unspecified) | -12 | i | -14 | -4 | 2.4 | 0.7 | 5.4 | -0.1 | -2
O=C(Cn1c(-c2ccccc2Cl)nc2ccccc21)Nc1cccc(Cl)c1 | . | i | 5 | 6 | -4.3 | 0.66 | 0.1 | -1.8 | 0
COCCNC(=O)CC(c1ccccc1)c1ccccc1 | -2 | . | . | . | . | 0.69 | 0.0 | 0.2 | 2
CCn1nc(C(=O)N[C@@H](CCSC)c2nc3ccccc3[nH]2)c2ccccc2c1=O | . | . | . | . | . | . | 2.0 | -0.5 | -4
Cc1ccc(-n2nc(C)cc2N)c(C)c1 | -40 | i | 12 | 9 | 0.0 | 0.66 | 0.0 | -3.4 | 3
O=C(NCCC1=CCCCC1)c1cc(-c2ccncc2)nc2ccccc12 | 0 | i | 10 | 5 | 4.5 | 0.68 | 2.6 | 2.4 | 0
COc1ccc(OC)c(S(=O)(=O)Nc2cc3c(cc2N2CCCC2)n(C)c(=O)c(=O)n3C)c1 | -37 | i | 19 | 13 | 1.9 | 0.69 | 13 | -0.6 | 9
CC(C)c1ccc(NC(=S)N2CCN(S(=O)(=O)c3ccccc3)CC2)cc1 | 0 | . | 12 | 11 | 2.2 | 0.71 | 3.9 | 2.4 | -5
Cn1c(SCC(=O)Nc2ccccc2[N+](=O)[O-])nnc1C(F)(F)F | -4 | i | 6 | 5 | -1.1 | 0.72 | 2.5 | -1.2 | -5

# The last two entries of the section before come first, to join the parts.
smiles | ALR H2O2 inh | FGF22 binding | Ecoli rRNA inh | Ecoli rRNA inh OD600 | Ecoli rRNA inh RFP | Ecoli growth | UCH37 DUB inh | HNF4A DNA FP | B2AR ag
CC(C)c1ccc(NC(=S)N2CCN(S(=O)(=O)c3ccccc3)CC2)cc1 | 0 | . | 12 | 11 | 2.2 | 0.71 | 3.9 | 2.4 | -5
Cn1c(SCC(=O)Nc2ccccc2[N+](=O)[O-])nnc1C(F)(F)F | -4 | i | 6 | 5 | -1.1 | 0.72 | 2.5 | -1.2 | -5
O=C(COc1ccccc1)Nc1nnc(COc2ccccc2)s1 | -4 | i | 4 | 12 | 1.1 | 0.71 | -1.1 | -2.8 | 5
Nc1nnc(CCCCc2cccs2)o1 | . | . | . | . | . | 0.75 | -3.7 | 0.8 | 4
CC(=O)Nc1ccccc1C(=O)C(=O)Nc1ccc(C(=O)NCC2CCCO2)cc1 (stereo unspecified) | -5 | i | 1 | 2 | -0.5 | 0.71 | 5.9 | -4.3 | -41
O=c1cc(O)c2ccc(O)cc2o1 | 16 | i | -23 | -25 | -16 | 0.79 | -21 | -3.4 | -1
Cc1ccc(-n2nc(C)c3cc(C(=O)O)sc32)cc1 | 6 | . | . | . | . | 0.63 | 4.6 | -0.5 | 11
O=C(CNc1n[nH]c(=O)[nH]c1=O)N/N=C/c1cccnc1 | -8 | i | 14 | 9 | 5.0 | . | . | 3.1 | -3
Cc1ccc2[nH]c3c(=O)n(Cc4ccncc4)cnc3c2c1 | -1 | . | . | . | . | 0.72 | -16 | -1.7 | 1
CCSc1nnc(NC(=O)C(CC)(C(F)(F)F)C(F)(F)F)s1 | -3 | . | . | . | . | 0.7 | -3.1 | -7.2 | 7
OC(c1cccc(CN2CCCCC2)c1)c1ncc(-c2cccc(C(F)(F)F)c2)[nH]1 (stereo unspecified) | . | i | 4 | 2 | 3.9 | . | . | 3.3 | .
C[C@H](CO)N1C[C@H](C)[C@H](CN(C)S(=O)(=O)c2ccccc2F)OCc2cnnn2CCCC1=O | . | i | 1&-3 | 0&-10 | -0.1&2.1 | . | . | 4.6 | .

# An excerpt of these results, with two lines to a compound.
# Sequence of screens – ALR H2O2 inh	FGF22 binding	Ecoli rRNA inh	Ecoli rRNA inh OD600	Ecoli rRNA inh RFP	Ecoli growth	UCH37 DUB inh	HNF4A DNA FP	B2AR ag
Nc1nnc(CCCCc2cccs2)o1
 : .	.	.	.	.	0.75	-3.7	0.8	4
O=C(COc1ccccc1)Nc1nnc(COc2ccccc2)s1
 : -4	i	4	12	1.1	0.71	-1.1	-2.8	5
Cc1ccc(-n2nc(C)c3cc(C(=O)O)sc32)cc1
 : 6	.	.	.	.	0.63	4.6	-0.5	11
CCSc1nnc(NC(=O)C(CC)(C(F)(F)F)C(F)(F)F)s1
 : -3	.	.	.	.	0.7	-3.1	-7.2	7
Cc1ccc2[nH]c3c(=O)n(Cc4ccncc4)cnc3c2c1
 : -1	.	.	.	.	0.72	-16	-1.7	1
O=c1cc(O)c2ccc(O)cc2o1
 : 16	i	-23	-25	-16	0.79	-21	-3.4	-1
CC(=O)Nc1ccccc1C(=O)C(=O)Nc1ccc(C(=O)NCC2CCCO2)cc1 (stereo unspecified)
 : -5	i	1	2	-0.5	0.71	5.9	-4.3	-41

# Following part:
# Screens by letter: A = ALR H2O2 inh; B = FGF22 binding; C = Ecoli rRNA inh; D = Ecoli rRNA inh OD600; E = Ecoli rRNA inh RFP; F = Ecoli growth; G = UCH37 DUB inh; H = HNF4A DNA FP; I = B2AR ag
SMILES: CCN(CC)S(=O)(=O)c1ccc2c(c1)c(=O)c(C(=O)NCCOC)cn2C
  A: -16	B: .	C: .	D: .	E: .	F: 0.66	G: 2.5	H: -1.2	I: -6
SMILES: CC(=NNc1nc2ccccc2s1)c1ncccn1
  A: .	B: i	C: .	D: .	E: .	F: .	G: .	H: 1.9	I: -80
SMILES: NS(=O)(=O)c1cccc(Nc2nc3ccccc3nc2NS(=O)(=O)c2ccc(Cl)cc2)c1
  A: .	B: i	C: -27	D: -35	E: 15	F: 0.65	G: -21	H: 4.0	I: 5
SMILES: COc1cc(NC(=O)c2cc3ccccc3o2)c(OC)cc1Br
  A: -7	B: .	C: .	D: .	E: .	F: .	G: -6.1	H: -2.3	I: 1
SMILES: O=C(CCCNS(=O)(=O)c1cccs1)N1CCc2ccccc2C1
  A: .	B: .	C: .	D: .	E: .	F: 0.7	G: 3.8	H: 1.8	I: -2
SMILES: O=C(CC1C(=O)NCCN1Cc1ccoc1)NCCCn1ncc2ccccc21 (stereo unspecified)
  A: -4	B: i	C: 5	D: 14	E: 4.6	F: 0.73	G: 1.2	H: 2.2	I: -2
SMILES: COCC(=O)N(C)c1nnc(-c2cnccn2)s1
  A: -11	B: .	C: .	D: .	E: .	F: 0.72	G: -1.0	H: -0.2	I: -20
SMILES: COc1cccc2cc(-c3ccccc3)c(=O)oc12
  A: 0	B: i	C: 1	D: 6	E: -1.0	F: 0.67	G: 0.8	H: 1.6	I: -1
SMILES: O=C(O)CSCC(=O)N1CCCN(c2nccc(C(F)(F)F)n2)CC1
  A: -6	B: i	C: 7	D: 7	E: 13	F: 0.68	G: 0.4	H: -0.8	I: -9
SMILES: CC1CCCC(C)N1C(=O)COC(=O)Cc1c[nH]c2ccccc12 (stereo unspecified)
  A: .	B: i	C: -8	D: -6	E: 0.1	F: 0.72	G: 2.8	H: -1.2	I: -1
SMILES: CCCc1ccc(C(=O)CCC(=O)O)cc1
  A: 10	B: .	C: .	D: .	E: .	F: 0.71	G: -1.1	H: 0.6	I: 0
SMILES: COCCNC(=O)c1ccc2c(=O)n(Cc3ccco3)c(SCC(=O)NC3CCCCC3)nc2c1
  A: .	B: .	C: .	D: .	E: .	F: 0.74	G: 1.6	H: 3.0	I: 3
SMILES: O=c1oc2cccnc2n1CCS(=O)(=O)c1ccc(F)cc1
  A: .	B: i	C: 2	D: 8	E: -0.2	F: 0.66	G: -28	H: 3.9	I: 9
SMILES: CC(C)(C)c1ccc(/C=N/Nc2cccc(C(=O)O)c2)cc1
  A: 9	B: i	C: 6	D: 17	E: -3.9	F: .	G: .	H: -1.4	I: -5
SMILES: CCNC(=S)N=Nc1c(O)[nH]c2ccc(C(C)C)cc12
  A: -7	B: i	C: -23	D: -22	E: -4.8	F: 0.67	G: -0.5	H: -2.9	I: -2
SMILES: CCCC(C)NC(=O)/C=C/c1cccc([N+](=O)[O-])c1 (stereo unspecified)
  A: 8	B: .	C: .	D: .	E: .	F: 0.73	G: 2.1	H: 0.2	I: 0
SMILES: COCCn1c(N)c(N(Cc2ccccc2)C(=O)c2cc(=O)[nH]c3ccccc23)c(=O)[nH]c1=O
  A: -1	B: i	C: 1	D: -6	E: -0.7	F: 0.71	G: 1.9	H: 3.5	I: 0
SMILES: Cc1ccc(-n2[nH]c3c4c(ccc3c2=O)C(=O)c2ccccc2C4=O)cc1
  A: -8	B: i	C: 27	D: -5	E: 1.4	F: 0.68	G: 1.6	H: -2.2	I: 12
SMILES: COc1ccc(/C=N/n2cncn2)cc1CSc1ccccn1
  A: 99*	B: .	C: .	D: .	E: .	F: .	G: .	H: 2.1	I: 0
SMILES: CCn1cc(C(=O)NC2CCCCCC2)c(=O)c2cc(S(=O)(=O)N3CCCCC3)ccc21
  A: -9	B: i	C: 0	D: 4	E: -1.0	F: 0.75	G: 0.6	H: 1.5	I: 10

# Shown as a hit in ALR H2O2 inh, among the entries above:
SMILES	ALR H2O2 inh	FGF22 binding	Ecoli rRNA inh	Ecoli rRNA inh OD600	Ecoli rRNA inh RFP	UCH37 DUB inh	HNF4A DNA FP	B2AR ag
COc1ccc(/C=N/n2cncn2)cc1CSc1ccccn1	99*	.	.	.	.	.	2.1	0

# Continuation.
# Screens by letter: A = ALR H2O2 inh; B = FGF22 binding; C = Ecoli rRNA inh; D = Ecoli rRNA inh OD600; E = Ecoli rRNA inh RFP; F = Ecoli growth; G = UCH37 DUB inh; H = HNF4A DNA FP; I = B2AR ag
SMILES: CC(=O)c1ccc(NC(=O)c2ccc(S(=O)(=O)c3ccccc3)cc2)cc1
  A: 0	B: .	C: .	D: .	E: .	F: 0.64	G: -1.7	H: 2.8	I: 1
SMILES: Cc1ccc(S(=O)(=O)N2CCN(C(=O)COC(=O)Cc3ccc(Cl)cc3)CC2)c(C)c1
  A: .	B: i	C: -9	D: -10	E: 0.4	F: 0.69	G: 0.8	H: -1.9	I: -4
SMILES: CC(Cc1c[nH]c2ccccc12)NC(N)=O (stereo unspecified)
  A: 37	B: i	C: 7	D: 9	E: -2.1	F: 0.7	G: 4.3	H: 1.7	I: 10
SMILES: O=S(=O)(N/N=C/c1ccc2c(c1)OCO2)c1ccc(Br)cc1
  A: 5	B: i	C: -4	D: -12	E: 5.6	F: .	G: .	H: 1.6	I: -5
SMILES: COc1ccc(CCN(Cc2cccs2)S(=O)(=O)c2ccc(C(=O)O)cc2)cc1OC
  A: 94*	B: i	C: -27	D: -19	E: -3.0	F: 0.71	G: 5.2	H: 0.1	I: 12
SMILES: CCc1cccc(NC(=O)CSCc2cc(=O)[nH][nH]2)c1
  A: 9	B: .	C: .	D: .	E: .	F: 0.75	G: -1.9	H: 4.4	I: 2
SMILES: Cc1cccc(C(=O)Nc2cc(=O)n(C)c(=O)n2C)c1
  A: 3	B: i	C: 18	D: 11	E: 2.5	F: 0.69	G: 4.3	H: 0.1	I: -1
SMILES: CCOC(=O)C(C)(C)Sc1nc2c(cnn2-c2ccc(F)cc2)c(=O)[nH]1
  A: -31	B: i	C: 1	D: 4	E: 0.0	F: 0.67	G: 1.2	H: -1.3	I: 8

# A portion of the library (hit frequency here may not be typical).
